Source: PubChem BioAssay
GALR2 agonist: GALR2 (human) receptor agonism; activation, %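 (tested at 5 µM)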; 0.48% of 140,000 active; GALR2-expressing cells, agonist activation read-out; O43603;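 active means above mean plus 3 SD of all compounds, about 5% in these data, not always enough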;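 further: 0% = vehicle buffer wells and 100% = reference agonist at full effect; tested in CHO reporter cells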
HSV augment: increases HSV replication in cells; HSV replication augmentation in cells, fold increase; maximum fold increase; 0.005% of 220,000 active;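 active means peak rise of 1.5-fold or more in the series; tested in PC3 cells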;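 further: first round at 10 µM; read as green reporter fluorescence; hits show the peak of a series up to 25 µM; 1 = signal of infected wells without compound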
RGS16-Gao: modulates binding between human RGS16 and Galphao; O15492+P09471; bead-based flow cytometry RGS16-Galphao binding, fluorescence; actives lie on both sides; binding response (% of control), % at 10 µM; 0.38% of 220,000 active; AID 1441;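 active means below 25% or above 175%, edge rows of some plates excepted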;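 further: Galphao activated by GDP with aluminum fluoride before binding; 100% = wells without compound and 0% = beads without RGS; some results beyond the cut were filed as inactive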
Insulin prom inh: TRM-6 insulin promoter activity inhibition. 0.9% of 130,000 active. inhibition, % at 2 µM. TRM-6 cells (human fetal islet line), insulin promoter-eGFP reporter, imaging; reporter expression induced with tamoxifen;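 active means inhibition above the mean plus 3 SD, with well images judged a real hit on visual review, cut at about 60% in these data, passing the limit was not always enough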
PKD1 inh: PKD1 (human) kinase inhibition; PKD1 kinase fluorescence polarization assay; 0.056% of 200,000 active; AID 797; inhibition, %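 (about 10 µM by stock and volumes)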;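 active means inhibition of 50% or more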;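 further: controls were vehicle for no effect and a reference inhibitor for full effect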
Target sequence (Q15139 whole entry, looked up): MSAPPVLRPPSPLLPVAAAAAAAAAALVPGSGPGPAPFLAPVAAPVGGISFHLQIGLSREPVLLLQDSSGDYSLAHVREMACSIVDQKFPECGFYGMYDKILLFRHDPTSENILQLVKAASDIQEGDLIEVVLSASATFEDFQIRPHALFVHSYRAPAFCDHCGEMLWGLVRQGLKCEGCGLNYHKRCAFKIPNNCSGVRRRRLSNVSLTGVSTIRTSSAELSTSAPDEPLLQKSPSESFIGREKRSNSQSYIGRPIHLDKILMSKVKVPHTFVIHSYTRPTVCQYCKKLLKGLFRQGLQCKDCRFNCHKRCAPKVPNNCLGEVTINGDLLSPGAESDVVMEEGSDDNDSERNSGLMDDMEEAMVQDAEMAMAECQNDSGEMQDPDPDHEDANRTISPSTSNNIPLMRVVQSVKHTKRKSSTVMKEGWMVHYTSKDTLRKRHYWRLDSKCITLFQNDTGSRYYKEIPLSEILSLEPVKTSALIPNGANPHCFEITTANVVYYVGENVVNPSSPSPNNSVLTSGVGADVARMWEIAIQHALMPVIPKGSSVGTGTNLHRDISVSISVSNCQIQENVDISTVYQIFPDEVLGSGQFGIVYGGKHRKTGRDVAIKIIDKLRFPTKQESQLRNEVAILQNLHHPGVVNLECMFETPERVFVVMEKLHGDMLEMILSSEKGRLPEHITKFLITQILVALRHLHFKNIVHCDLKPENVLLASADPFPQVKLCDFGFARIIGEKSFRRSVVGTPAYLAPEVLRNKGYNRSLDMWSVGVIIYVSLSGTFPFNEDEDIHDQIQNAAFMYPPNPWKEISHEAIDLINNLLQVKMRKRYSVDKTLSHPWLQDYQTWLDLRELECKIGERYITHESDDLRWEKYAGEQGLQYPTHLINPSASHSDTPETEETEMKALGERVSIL
Insulin prom inh cell count: further read-out of Insulin prom inh, marked with its call; normalized cell count, %; measured here: cell count, toxicity; reference of the scale not given here;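 cells exposed to compound for 48 h; stained nuclei by imaging scaled within each plate; lower means fewer cells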
HSV augment primary fold: further read-out of HSV augment, marked with its call; fold increase; compound at 10 µM; measured here: primary screen fold increase 10 uM; tested in PC3 cells;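 GFP signal in the first replicate; 1 = infected wells without compound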
* hit, by the source's call; i = inactive; . = not tested or not shown.

Compound	GALR2 agonist	HSV augment	HSV augment primary fold	RGS16-Gao	Insulin prom inh	Insulin prom inh cell count	PKD1 inh
O=C(c1ccco1)N1C2C=CC(C2)C1(C(F)(F)F)C(F)(F)F (centres undefined)	-3.1	.	.	105	0	57	-13
CC(=O)Nc1nc2cc3c(cc2s1)OCO3	-1.8	i	1.1	102	.	.	-3
CCCn1c(SCCN2C(=O)c3ccccc3C2=O)n[nH]c1=O	-3.6	i	0.84	102	24	131	3
S=C(NN=C1C2CC3CC(C2)CC1C3)Nc1ccccc1	-2.5	i	0.97	136	-13	184	-3
COc1ccc(S(=O)(=O)CCC(=O)N(C)c2ccc(OC)cc2OC)cc1	-4.2	i	1.1	89	23	56	12
CCc1ccc(NC(=O)C2CCCCC2C(=O)O)cc1 (centres undefined)	-3.2	i	0.95	102	.	.	9
CCN(CC)c1nc2ccccc2[nH]1	-4.4	i	0.94	107	72*	234*	4
COc1ccc(NC(=S)N2CCN(c3ncccn3)CC2)c(OC)c1	.	i	1.3	91	.	.	.
COCc1cc(=O)[nH]c(/N=C(\N)Nc2cccc(C)c2)n1	-3.2	i	0.97	99	14	171	-9
COC(=O)c1cccc(NC(=S)NC(C)C)c1	.	i	1	97	.	.	3
CCOC(=O)c1c(-c2ccc(OC)cc2)csc1NC(=O)C1CCCO1 (centres undefined)	.	i	1	99	29	122	1
CC12C(=O)N(n3cnnc3)C(=O)C1C1C=CC2C1 (centres undefined)	-3.5	i	0.85	101	-62	97	-2

Next part.
Compound	GALR2 agonist	HSV augment	HSV augment primary fold	RGS16-Gao	Insulin prom inh	Insulin prom inh cell count	PKD1 inh
COc1ccc(Nc2ncccc2C(=O)O)cc1	-2.9	i	0.99	95	0	45	10
C/C(=N\NC(=O)CSCc1ccccc1Br)c1cccc([N+](=O)[O-])c1	-1.6	i	0.8	104	.	.	4
CCNC(=O)c1ccccc1-c1nc(-c2ccccc2)no1	.	i	0.83	101	.	.	.
CCOC(=O)C1CCCN(C(=O)CCn2nc(-c3ccccc3)ccc2=O)C1 (centres undefined)	-2.5	.	.	104	47	117	-14
Cc1ccc(S(=O)(=O)N(C)CC(=O)OCC(=O)N2CCN(c3ccccc3)CC2)cc1	-2.3	i	0.98	100	-49	141	-10
COc1ccc(/C=N/NC(=O)CNS(=O)(=O)c2ccc(C)cc2)cc1	.	i	0.94	103	7	100	-3
O=C1c2cccc3cc([N+](=O)[O-])cc(c23)C(=O)N1c1ccccc1O	.	i	1.1	110	-240	60	-1
O=C1CC(c2nc3ccccc3[nH]2)CN1c1ccccc1F (centres undefined)	-0.4	i	0.82	98	.	.	9
Cc1nc(-c2ccc(Cl)cc2)sc1C1(C)CC(c2cccnc2)=NO1 (centres undefined)	.	i	1	100	.	.	.
CC1CCCC(C)N1C(=O)CSc1nnc(COc2ccccc2)n1-c1ccccc1 (centres undefined)	-1.1	i	0.76	101	-16	105	4
COc1ccccc1N(/N=C1\Sc2ccccc2C1=O)C(C)=O	.	i	1.2	97	.	.	.
CCCCNC(=O)NC1C(NC(=O)NCCCC)N(C)C(=O)N1C (centres undefined)	-3.0	i	0.76	102	12	85	-4

Additional compounds follow:
Compound	GALR2 agonist	HSV augment	HSV augment primary fold	RGS16-Gao	Insulin prom inh	Insulin prom inh cell count	PKD1 inh
O=C(COc1ccccc1)N1CCCC1	.	i	1	105	-33	123	-1
COc1ccccc1NS(=O)(=O)c1ccc(O)c(C(=O)OCC(=O)Nc2ccccc2F)c1	.	i	1	99	.	.	-5
C/C(=N\NC(=O)c1ccc(F)cc1)c1cccc(NC(=O)c2ccco2)c1	-0.2	i	0.89	102	.	.	-8
CC1Cc2ccccc2N1C(=S)NC(=O)C1(C)CC1(Cl)Cl (centres undefined)	.	i	0.99	7.2*	9	113	-2
Cc1ccc(S(=O)(=O)c2cc(OC(=O)c3ccco3)ccc2OC(=O)c2ccco2)cc1	0.2	i	1	100	27	145	4
O=C(Nc1ccc(Cl)cc1)c1cc(S(=O)(=O)N2CCOCC2)cs1	5.7	i	0.75	94	-21	76	-4
O=C(/C=C/c1cn(-c2ccccc2)nc1-c1ccccc1)Nc1ccc(C(=O)O)cc1	.	i	1.1	98	.	.	-4
CCCN1C/C(=C/c2cccc([N+](=O)[O-])c2)C(=O)/C(=C/c2cccc([N+](=O)[O-])c2)C1	-1.5	i	1.2	97	.	.	-4
Cc1ccc2cc3cc(C(=O)NCCN4CCOCC4)oc3nc2c1	-0.5	i	0.89	102	5	89	0
CCOC(=O)c1c(C(F)(F)F)cc(-c2ccc(F)cc2)nc1C	-0.1	i	1.1	104	.	.	-1
CCOC(=O)COc1ccc(S(=O)(=O)Nc2cccc(SC)c2)cc1	-2.6	i	0.55	102	-20	95	0
COc1ccc(-c2nnc(NC(=O)c3cc(Cl)ccc3Cl)o2)cc1	-2.6	i	1	107	.	.	1

Molecules shown so far that contain two or more sulfur atoms, in the order listed:
Compound	GALR2 agonist	HSV augment	HSV augment primary fold	RGS16-Gao	Insulin prom inh	Insulin prom inh cell count	PKD1 inh
O=C(Nc1ccc(Cl)cc1)c1cc(S(=O)(=O)N2CCOCC2)cs1	5.7	i	0.75	94	-21	76	-4
CCOC(=O)COc1ccc(S(=O)(=O)Nc2cccc(SC)c2)cc1	-2.6	i	0.55	102	-20	95	0

3 compounds from above, ordered by the number in HSV augment primary fold, lowest first.
| compound | GALR2 agonist | HSV augment | HSV augment primary fold | RGS16-Gao | PKD1 inh |
| --- | --- | --- | --- | --- | --- |
| CCN(CC)c1nc2ccccc2[nH]1 | -4.4 | i | 0.94 | 107 | 4 |
| Cc1nc(-c2ccc(Cl)cc2)sc1C1(C)CC(c2cccnc2)=NO1 (centres undefined) | . | i | 1 | 100 | . |
| CCOC(=O)c1c(C(F)(F)F)cc(-c2ccc(F)cc2)nc1C | -0.1 | i | 1.1 | 104 | -1 |

Later entries.
Compound	GALR2 agonist	HSV augment	HSV augment primary fold	RGS16-Gao	Insulin prom inh	Insulin prom inh cell count	PKD1 inh
CC(C)CCN1CCN(Cc2cnc(-c3ccccc3)s2)CC1CCO (centres undefined)	.	i	1	109	.	.	-3
O=C(CCc1nc(-c2ccccc2F)no1)NC1CCCCC1	0.1	i	1.1	83	-19	98	-14
COc1cc(C(=O)NNC(=S)Nc2ccc(S(N)(=O)=O)cc2)cc(OC)c1OC	.	i	0.76	84	.	.	-4
Cn1c(=O)c2c(nc(SCCN3CCOCC3)n2Cc2ccc(F)cc2)n(C)c1=O	-1.7	i	0.76	i	-84	36	-3
CC(=O)Nc1nc(C)c(-c2csc(Nc3cccc([N+](=O)[O-])c3)n2)s1	5.2	i	0.63	104	36	82	0
COc1ccc(CNC(=O)CN(C(=O)CCC(=O)Nc2ccccn2)c2ccccc2OC)cc1	-1.3	i	0.81	102	.	.	-12
C/C(=N\Nc1cc(-c2ccccc2)nc(-c2ccccc2)n1)c1ccc(O)c(C)c1	-0.2	i	0.81	105	.	.	2
Cc1ccncc1C(N)=O	.	i	0.92	106	.	.	.
CC(C)n1cc(/C=C2/SC(=O)N(CC(=O)Nc3ccc4c(c3)OCO4)C2=O)c2ccccc21	-1.9	i	0.79	85	.	.	-12
COc1cccc(-c2nc(-c3ccccn3)no2)c1OC	-1.7	i	0.91	100	-33	127	-4
Cc1ccc(S(=O)(=O)N(C)CCCC(=O)NC(C)(C)C)cc1	.	i	1	97	.	.	-2
Cn1nc(-c2ccc(N3CCOCC3)c(NS(=O)(=O)c3ccc(Cl)cc3)c2)c2ccccc2c1=O	1.2	i	1	102	-26	230	2

The list goes on.
Compound	GALR2 agonist	HSV augment	HSV augment primary fold	RGS16-Gao	Insulin prom inh	Insulin prom inh cell count	PKD1 inh
O=C1Nc2ccc(Br)cc2/C1=C/C1CC=CCC1 (centres undefined)	.	i	0.93	104	.	.	-2
CCN(CC)c1ccc(NC(=O)CSc2nnc(N)s2)cc1C	-1.8	i	1.1	106	.	.	-5
COC(C(=O)Nc1ccc(Cl)cc1C)c1ccccc1 (centres undefined)	0.1	.	.	116	-92	77	-6
CC(C)c1ccc(CN2CC(C(=O)Nc3ccccc3)CC2=O)cc1 (centres undefined)	.	i	1	115	75*	37*	-4
CCOc1ccc(Cn2nnc(C(=O)Nc3cc(OC)cc(OC)c3)c2N)cc1	-2.3	i	0.93	103	.	.	-5
CCOn1c(SC(C)C)nc2ccccc2c1=O	-0.3	i	0.97	94	3	117	-1
Cn1c(=O)c2c(nc(NCc3ccco3)n2CC(O)CO)n(C)c1=O (centres undefined)	.	i	0.85	107	.	.	-7
c1ccc(-c2oc3ncnc(NCCCN4CCOCC4)c3c2-c2ccccc2)cc1	0.7	i	0.83	133	.	.	5
CC(C)(C)C(=O)Nc1sc2c(c1C#N)CCC2	.	i	0.94	103	.	.	-8
Cc1ccc(NC(=O)c2cc(-c3ccc(F)cc3)on2)cc1C	.	i	0.86	94	.	.	-5
O=C(c1cccc(C(=O)N2CCN(Cc3ccccc3)CC2)c1)N1CCN(Cc2ccccc2)CC1	-0.4	i	1	102	.	.	-16
COc1cc(/C=C/CO)cc(OC)c1O[C@@H]1O[C@H](CO)[C@@H](O)[C@H](O)[C@H]1O	-0.9	i	0.85	100	38	116	1

Part of the list above in order of formula weight, highest first:
Compound	GALR2 agonist	HSV augment	HSV augment primary fold	RGS16-Gao	Insulin prom inh	Insulin prom inh cell count	PKD1 inh
Cn1nc(-c2ccc(N3CCOCC3)c(NS(=O)(=O)c3ccc(Cl)cc3)c2)c2ccccc2c1=O	1.2	i	1	102	-26	230	2
COc1ccc(CNC(=O)CN(C(=O)CCC(=O)Nc2ccccn2)c2ccccc2OC)cc1	-1.3	i	0.81	102	.	.	-12
CC(C)n1cc(/C=C2/SC(=O)N(CC(=O)Nc3ccc4c(c3)OCO4)C2=O)c2ccccc21	-1.9	i	0.79	85	.	.	-12
c1ccc(-c2oc3ncnc(NCCCN4CCOCC4)c3c2-c2ccccc2)cc1	0.7	i	0.83	133	.	.	5
CCOc1ccc(Cn2nnc(C(=O)Nc3cc(OC)cc(OC)c3)c2N)cc1	-2.3	i	0.93	103	.	.	-5
C/C(=N\Nc1cc(-c2ccccc2)nc(-c2ccccc2)n1)c1ccc(O)c(C)c1	-0.2	i	0.81	105	.	.	2
CC(=O)Nc1nc(C)c(-c2csc(Nc3cccc([N+](=O)[O-])c3)n2)s1	5.2	i	0.63	104	36	82	0
COc1cc(/C=C/CO)cc(OC)c1O[C@@H]1O[C@H](CO)[C@@H](O)[C@H](O)[C@H]1O	-0.9	i	0.85	100	38	116	1
CCN(CC)c1ccc(NC(=O)CSc2nnc(N)s2)cc1C	-1.8	i	1.1	106	.	.	-5
CC(C)c1ccc(CN2CC(C(=O)Nc3ccccc3)CC2=O)cc1 (centres undefined)	.	i	1	115	75*	37*	-4
Cc1ccc(S(=O)(=O)N(C)CCCC(=O)NC(C)(C)C)cc1	.	i	1	97	.	.	-2
Cc1ccc(NC(=O)c2cc(-c3ccc(F)cc3)on2)cc1C	.	i	0.86	94	.	.	-5
O=C1Nc2ccc(Br)cc2/C1=C/C1CC=CCC1 (centres undefined)	.	i	0.93	104	.	.	-2
COC(C(=O)Nc1ccc(Cl)cc1C)c1ccccc1 (centres undefined)	0.1	.	.	116	-92	77	-6
COc1cccc(-c2nc(-c3ccccn3)no2)c1OC	-1.7	i	0.91	100	-33	127	-4
CCOn1c(SC(C)C)nc2ccccc2c1=O	-0.3	i	0.97	94	3	117	-1
CC(C)(C)C(=O)Nc1sc2c(c1C#N)CCC2	.	i	0.94	103	.	.	-8

(listing goes on)
Compound	GALR2 agonist	HSV augment	HSV augment primary fold	RGS16-Gao	Insulin prom inh	Insulin prom inh cell count	PKD1 inh
O=C(Nc1c2c(nn1-c1ccc(F)cc1)CS(=O)C2)C12CC3CC(CC(C3)C1)C2 (centres undefined)	-3.1	i	0.98	83	-50	116	-6
Cn1cccc1CC(=O)NNC(=S)Nc1ccccc1Cl	0.3	i	0.98	90	20	162	3
CCOC(=O)c1c(N)nn(C(=O)c2ccccc2F)c1-c1ccc(OC)cc1	.	i	0.97	103	.	.	-8
CCCN1C(=O)SC(CC(=O)Nc2ccc(C)cc2)C1=O (centres undefined)	-0.9	i	1	111	60	122	11
Cc1ccc(C(=O)Nc2ccccc2C(=O)NC2CCCCC2)cc1S(=O)(=O)N1CCOCC1	-0.7	i	0.98	97	49	129	-8
CN1CC[n+]2c(CN3C(=O)c4ccccc4C3=O)csc21	-2.5	i	1	56	-69	57	2
COc1ccc(CCn2c(NN)nc3c2c(=O)[nH]c(=O)n3C)cc1	.	i	0.64	102	.	.	.
C/C(=N\NC(=O)C(C)Sc1ccccc1)C(C)(C)C (centres undefined)	-2.3	i	0.81	108	50	99	0
C=C(C)C1Cc2c(C)nn(-c3nc(C)cc(C)n3)c2C1 (centres undefined)	-0.3	i	0.95	102	-9	100	1
CCS(=O)(=O)Nc1ccccc1C(N)=O	.	i	0.98	116	.	.	0
